Source: PubChem BioAssay
WNV protease inh = inhibitors of WNV NS2B-NS3 protease, primary screen, biochemical, fluorogenic substrate | Genome polyprotein (West Nile virus), P06935 | fluorogenic substrate Ex360/Em465; stronger effect = lower value | z-score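 (tested at a level between 10 and 100 µM)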 | 65,000 compounds, 0.18% hits | AID 577, 2007;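 active means z-score at -3 or under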;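 further: score is relative to mean and spread of the compound wells of a plate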
Target sequence (P06935 1371-1501 limits assumed): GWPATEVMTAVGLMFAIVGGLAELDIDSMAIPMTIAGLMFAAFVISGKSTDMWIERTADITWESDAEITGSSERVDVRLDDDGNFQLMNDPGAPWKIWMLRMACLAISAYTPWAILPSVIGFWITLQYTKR
Target sequence (P06935 1502-1679 limits assumed): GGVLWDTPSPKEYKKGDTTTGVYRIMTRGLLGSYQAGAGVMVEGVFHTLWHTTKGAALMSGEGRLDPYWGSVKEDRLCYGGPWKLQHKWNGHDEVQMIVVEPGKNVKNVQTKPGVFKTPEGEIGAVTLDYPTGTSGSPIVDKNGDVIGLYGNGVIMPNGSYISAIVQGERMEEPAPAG
Hsc70 ATP site = Hsc70 inhibitors, probe displacement, primary screen, biochemical, fluorescence polarization (AID 568). displacement, % at 20 µM; hits with a dose series show IC50 in µM. Hsc70 fluorescence polarization, probe displacement; higher % means a stronger effect; strong numbers were not always called active. Heat shock cognate 71 kDa protein (Homo sapiens). 83,000 tested, under 10 active;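 active means displacement above 50% without optical interference and an IC50 on retest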;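 further: ATPase domain with a fluorescein-tagged ATP probe; 0% = vehicle and 100% = excess ADP; read after one hour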
MT1-MMP promoter = inhibitors of MT1-MMP promoter transcription, cell-based, luciferase reporter, luminescence (AID 618); 87,000 compounds, 0.62% hits; calls from a first round at 10 µM; hits with a dose series show EC50 in µM; MT1-MMP promoter luciferase reporter cells, luminescence;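 active means over half of the reporter light lost at 10 µM or EC50 under 50 µM; inactive means the rest and hits that failed the dose series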;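 further: actives suppress MT1-MMP promoter-driven transcription so potencies describe inhibitors; HT1080 fibrosarcoma cells; overnight exposure; toxic or luciferase-blocking compounds were not removed from the actives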
* hit, by the source's call; i = inactive; · = not tested or not shown.

smiles | MT1-MMP promoter | WNV protease inh | Hsc70 ATP site
Cc1c(C(=O)NCc2ccc3c(c2)OCO3)sc2nc(-c3ccccc3)cn12 | i | 0.41 | -3.2%
CCOc1ccc(Oc2cc(C)nc(SC)n2)nn1 | i | · | -4.6%
COc1ccc(CCNC(=O)c2sc(=S)n(C)c2N)cc1 | i | -0.01 | -3.9%
CC(C)(C)NC(=O)CN(C(=O)CSc1nnc(COc2ccccc2)o1)c1cccc(F)c1 | i | · | 5.2%
COc1ccc(Cl)cc1CSc1n[nH]c(C)n1 | i | -1.2 | -3.2%
c1ccc(-c2nn3c(-c4ccncc4)nnc3s2)nc1 | i | -1.3 | 18%
CCOc1ccc(N(CC(=O)NCc2ccco2)S(=O)(=O)c2ccc(OC)c(OC)c2)cc1 | i | -0.75 | 2.7%
O=Cc1c(N2CCCCCC2)nc2ccccn2c1=O | i | · | -5.2%
O=C(CN1C(=O)c2ccccc2S1(=O)=O)N1CCN(c2cccc(Cl)c2)CC1 | i | 2.3 | -7.3%
COC(=O)CCc1c(C)c(C(=O)c2ccco2)c2ccccn12 | i | 0.35 | -3.1%
NC(=O)C1CCN(CCC(=O)Nc2ccc(Br)cc2)CC1 | i | 0.96 | -3.9%
COc1ccc2[nH]c(=O)c(CN(C3CCCCC3)C(c3nnnn3Cc3ccco3)C(C)C)cc2c1 (stereo unspecified) | i | -1.1 | -28%
O=S(=O)(c1cccc(S(=O)(=O)N2CCN(c3ncccn3)CC2)c1)N1CCOCC1 | i | 1.6 | 2.3%
Cc1c(C(=O)OCC(C)C)[nH]c2c1C(=O)CC(c1cccs1)C2 (stereo unspecified) | i | · | 4.5%
CCc1ccc2[nH]c(=O)c(C(c3nnnn3CCOC)N3CCN(c4ccccc4)CC3)cc2c1 (stereo unspecified) | i | -0.45 | -0.3%
O=C(C(c1ccccc1)c1ccccc1)N1CCN(Cc2ccco2)CC1 | i | · | 0.1%
O=c1[nH]c(C2CCCN(S(=O)(=O)c3ccccc3)C2)nc2c1nnn2Cc1ccccc1F (stereo unspecified) | i | 1.4 | 3.0%
O=C(NC1CCCCC1)NC1CCN(S(=O)(=O)c2ccc3c(c2)OCCO3)CC1 | i | -0.04 | 2.9%
Cc1occc1-c1nnc(SCC(=O)c2ccc(F)cc2)o1 | i | -0.53 | 0.5%
Cc1ccccc1OCCn1nc(C(=O)O)c2ccccc2c1=O | i | 0.07 | -1.5%
COc1ccc(-n2nnc3c(=O)n(CC(=O)NCC4CCCO4)cnc32)cc1 (stereo unspecified) | i | 0.15 | -0.5%
NC(=O)C1CCN(c2oc(-c3ccccc3F)nc2S(=O)(=O)c2ccc(Cl)cc2)CC1 | i | 0.18 | -1.3%
CC(=O)c1c(C)nn(CC(O)COc2ccc3c(c2)CCC3)c1C (stereo unspecified) | i | 0.19 | -4.5%
c1ccc(-c2cc3n(c2)CCc2ccccc2-3)cc1 | i | · | 0.3%
O=C(Nc1ccc(-n2nncc2-c2ccco2)cc1)c1ccc(F)cc1 | i | -0.76 | -1.3%
COC(=O)c1cc(OC)c(OC)cc1NC(=O)c1ccc(OC)c(OC)c1 | i | · | -2.6%
Cc1cc(/C=N/n2cnnc2)c(C)n1-c1ccc(OCc2ccc(Cl)cc2Cl)cc1 | 9.5µM* | · | -4.3%
O=C(CC1CCCCC1)NCc1cn2ccsc2n1 | i | -1.4 | 5.1%
Cc1ccc2cc(CN(Cc3ccco3)C(=O)c3ccccc3)c(=O)[nH]c2c1C | i | 1.4 | 0.6%
C=CCN(CC=C)Cc1c(C)[nH]c2ccc(C(=O)OCC)cc2c1=O | i | · | 4.1%
Cc1ccccc1-c1nc(CN2CCCC(C(=O)NCc3cccnc3)C2)c(C)o1 (stereo unspecified) | i | -1 | -1.5%
CCS(=O)(=O)c1ccc2oc(SCC(=O)c3ccco3)nc2c1 | i | 0.99 | -3.7%

Of the compounds above, five have an aryl thioether with sulfur outside any ring:
smiles | MT1-MMP promoter | WNV protease inh | Hsc70 ATP site
CCOc1ccc(Oc2cc(C)nc(SC)n2)nn1 | i | · | -4.6%
CC(C)(C)NC(=O)CN(C(=O)CSc1nnc(COc2ccccc2)o1)c1cccc(F)c1 | i | · | 5.2%
COc1ccc(Cl)cc1CSc1n[nH]c(C)n1 | i | -1.2 | -3.2%
Cc1occc1-c1nnc(SCC(=O)c2ccc(F)cc2)o1 | i | -0.53 | 0.5%
CCS(=O)(=O)c1ccc2oc(SCC(=O)c3ccco3)nc2c1 | i | 0.99 | -3.7%

(cont.)
smiles | MT1-MMP promoter | WNV protease inh | Hsc70 ATP site
CC1CCCC(NC(=O)c2cn(C)c3ccc(S(=O)(=O)N4CCCC4)cc3c2=O)C1C (stereo unspecified) | i | 2.1 | 4.9%
NC(=O)c1ccc(OCC(F)(F)C(F)(F)C(F)(F)C(F)(F)C(F)(F)C(F)F)cc1 | i | -1.2 | -0.5%
COc1ccc2nc(NC(=O)CSc3nc(C)cc(C)n3)sc2c1 | i | · | -4.1%
Cn1c(=O)cc(OCC(=O)NCc2ccccn2)c2ccccc21 | i | 1.6 | -0.2%
Cc1noc(C)c1COc1ccc(C(=O)OCC(=O)N2CC(=O)Nc3ccccc32)cc1 | i | · | -3.2%
CCOC(=O)c1[nH]c(COC(=O)C2CC(=O)N(Cc3ccccc3)C2)c(C(=O)OCC)c1C (stereo unspecified) | i | 0.62 | 0.6%
CCn1c2ccccc2c2cc(NC(=O)CCCN3C(=O)CCC3=O)ccc21 | i | 0.14 | -5.3%
Cc1cc(C)n(-c2nc3ccccc3nc2Nc2ccc(CC(=O)O)cc2)n1 | i | -0.9 | -1.5%
CCOC(=O)CCC(=O)N1CCOCCN(C(=O)CCC(=O)OCC)CCOCC1 | i | 0.26 | -1.7%
CCN(CC)c1nc(N)c2c(N)n(-c3ccccc3C)c(=S)c(C#N)c2c1C#N | i | 0.76 | -3.9%
CC(C)OP(=O)(c1ccc(N(C)C)cc1)C(O)c1ccccc1F (stereo unspecified) | i | -0.39 | 1.1%
Cc1c(Cl)cccc1NC(=O)CC(NCCN1CCOCC1)C(=O)O (stereo unspecified) | i | -0.54 | -2.6%
CCOc1ncccc1C(=O)OCC(=O)N1CCN(S(=O)(=O)c2ccccc2)CC1 | i | -0.5 | 0.4%
CC(C)CCNC(=O)NC(=O)CN1C(=O)NC2(CCCCC2)C1=O | i | 0.42 | -0.1%
Cn1c(=O)c2c(nc(CN3CCOCC3)n2CCN2CCOCC2)n(C)c1=O | i | 0.71 | -0.1%
COc1cc2c(C(=O)N3CCCc4ccccc43)cn(C)c(=O)c2cc1OC | i | -0.8 | -0.7%
Cc1nn(-c2ccccc2)c(CC(C)(C)C(=O)O)c1C(=O)O | i | -0.3 | 1.1%
Cc1ccccc1NC(=O)N1C2CCC1CC(O)(c1cccnc1)C2 (stereo unspecified) | i | · | -6.9%
COc1cc(C2N(c3ccc(Cl)c(Cl)c3)C(=O)C3CCCN32)cc(OC)c1OC (stereo unspecified) | i | -0.9 | -1.2%
CCOC(=O)c1c(NC(=O)CCC(=O)NCc2ccco2)sc2c1CCCC2 | i | 0.51 | 6.4%
COc1ccc(S(=O)(=O)N(CC(=O)NCc2ccco2)C2CCCCC2)cc1OC | i | 0.61 | 3.8%
OCCN1CCN(c2ncnc3c2sc2nc(N4CCOCC4)c4c(c23)CCC4)CC1 | i | 0.37 | 1.7%
CC(C(=O)N1CCc2ccccc21)N1CCc2ccccc2C1 (stereo unspecified) | i | 0.58 | 1.4%
Cc1cc2cc(CNC(=O)c3cc4ccccc4o3)ccc2n1C | i | -0.12 | 3.3%
Cc1ccc(C(=O)CCNc2ccccc2)o1 | i | 0.88 | -2.3%
CN(C(=O)C1CCOC1)c1nnc(-c2ccncc2)s1 (stereo unspecified) | i | -0.26 | -0.3%
N#Cc1cn(CC(=O)NCC2CCCO2)c2ccccc12 (stereo unspecified) | i | -0.61 | 5.8%
Cc1ccc(S(=O)(=O)CCC(=O)N2CCN(c3ccc(Cl)cc3)CC2)cc1 | i | · | 0.3%
CCOc1ccc(C(CC(=O)O)NC(=O)C23CC4CC(CC(C4)C2)C3)cc1 (stereo unspecified) | i | · | 4.3%
Cc1cc2c(c(=O)n1CC1CCCO1)C(c1ccco1)C(C#N)=C(N)O2 (stereo unspecified) | i | -0.12 | -5.2%
CCCCOCCCNC(=O)C1CCCCC1 | i | -0.86 | 4.8%
CCOC(=O)Cc1nnn(CC(=O)OCC)n1 | i | · | 0.4%
N#C/C(C(=O)c1ccccc1)=C1/CCCCCN1 | i | -0.47 | -7.8%
CCOC(=O)c1ccc(NC=C2C(=O)OC3(CCCCC3)OC2=O)cc1 | i | · | -0.2%
CC(=O)Oc1ccc(NC(=O)C2CCCCC2)c(C(=O)O)c1 | i | -0.35 | 2.6%
CCOC(=O)c1ccc(-n2c(=O)[nH]c3ccccc3c2=O)cc1 | i | 1.6 | -0.1%
Cc1cc(C)c(C#N)c(Oc2ccc(F)cc2)n1 | i | · | -4.0%
Cc1c(C(=O)O)oc2c1ccc1ccccc12 | i | 0.98 | 6.1%
N#CCCn1cc(/C=C(\C#N)c2nc3ccccc3s2)c(-c2ccc(F)cc2)n1 | i | · | -9.5%
Cn1ncc(C#N)c1/N=C/N(Cc1ccccc1)Cc1ccccc1 | i | 0.47 | -6.8%
Cc1cc(=O)n2nc(N3CCCC(C(=O)NCCC4=CCCCC4)C3)sc2n1 (stereo unspecified) | i | 1.3 | 5.0%
Cc1cccc(NC(=O)Cc2coc3ccc4ccccc4c23)n1 | i | · | -2.7%
CC(=O)C1=C(C)NC(=O)NC1c1ccccc1 (stereo unspecified) | i | 0.35 | 2.6%
Brc1ccc(CSc2nnc(-c3ccccn3)n2Cc2ccco2)cc1 | i | -0.01 | 0.3%
Cc1cc(NC(=O)CCC2CCCCC2)no1 | i | · | 2.5%
CCn1c(CNc2ccc(Cl)cc2)nnc1SCC(=O)OC1CCCCC1 | i | · | 0.3%
CCOC(=O)c1ccc(NC(=O)CCOc2ccccc2)cc1 | i | · | 4.4%
O=C(Nc1ccccc1)N1C(=O)C2(OCCO2)c2ccccc21 | i | 1.3 | -5.0%
O=C(Nc1nnc(C2CC2)s1)c1cccc(S(=O)(=O)N2CCc3ccccc32)c1 | i | 0.49 | -4.3%
COCCn1c(N)c(C(=O)Nc2sc3c(c2C(=O)OC)CCCC3)c2nc3ccccc3nc21 | i | -0.29 | -4.8%
O=C(NCc1csc(-c2ccccc2)n1)c1ccco1 | i | -0.79 | -3.2%
O=C(CSc1n[nH]c(-c2ccccc2)n1)Nc1ccc(Br)cn1 | i | · | -3.5%
Cc1noc(C)c1CSc1nnc(-c2ccncc2)n1-c1cccc(Cl)c1C | i | 0.05 | 2.7%
Cc1ccc(Nc2nc(N)nc(CSc3nnnn3-c3ccccc3)n2)cc1 | i | -1 | -1.1%
CN(C)S(=O)(=O)Nc1ccccc1C(N)=O | i | 0.22 | -0.1%
Cc1ccc(Cl)cc1NC(=O)CCC(=O)Nc1cc(Cl)ccc1C | i | · | -0.7%

Further records.
smiles | MT1-MMP promoter | WNV protease inh | Hsc70 ATP site
O=C(CCCN1C(=O)c2ccccc2C1=O)NCC1CCCO1 (stereo unspecified) | i | · | 4.6%
C=CCSC1=C(C#N)C(c2ccccc2Cl)CC(=O)N1 (stereo unspecified) | i | 0.32 | 4.1%
Cn1c(=O)c2c(nc(Sc3n[nH]c(N)n3)n2Cc2ccccc2Cl)n(C)c1=O | i | 1.6 | -6.8%
CC(C)(C)NC(=O)CC(CC(=O)O)c1ccccc1 (stereo unspecified) | i | -0.01 | 5.0%
COc1ccc(N(Cc2cc3ccc(C)cc3[nH]c2=O)C(=O)c2ccco2)cc1 | i | -1.2 | -4.5%
CCOC(=O)Cn1c(=O)oc2cc(S(=O)(=O)Nc3c(C)cc(C)cc3C)ccc21 | i | -0.08 | 0.5%
O=C(CCN1CCN(CCC(=O)c2ccccc2)CC1)c1ccccc1 | i | 1.1 | -4.0%
Cc1nc2cc(-c3ccc(F)cc3)nn2c(N2CCOCC2)c1C | i | -1.4 | 0.1%
Cc1ncc([N+](=O)[O-])n1CC(C)O (stereo unspecified) | i | · | 0.7%
CCCCOc1ccc(S(=O)(=O)Nc2cccnc2)cc1 | i | -0.67 | -0.8%
CC(C)c1ccc(CN(C(=O)C2COc3ccccc3O2)C2CCS(=O)(=O)C2)cc1 (stereo unspecified) | i | · | 2.4%
Cc1ccc(OCc2nnc(SCC(=O)C(C)(C)C)n2Cc2ccco2)cc1 | i | -0.34 | -8.5%
CCOc1cccc(=O)c2c(C)n(CC3CCCO3)c(C)c12 (stereo unspecified) | i | 1.8 | 6.2%
Cc1ccc(NS(=O)(=O)c2ccc(OCC(=O)N3CCOCC3)cc2)cc1 | i | · | -8.5%
Cc1ccc(C)n1-c1ccc(N2CCOCC2)cc1 | i | -0.19 | 5.1%
CC(C(=O)N1CCCCC1)n1ncn2cccc2c1=O (stereo unspecified) | i | -0.42 | 0.1%
CCOc1ccc(S(=O)(=O)N(CCO)CCO)cc1-c1nc2c(C(C)(C)C)nn(C)c2c(=O)[nH]1 | i | · | -3.3%

This is a subset; the hit share may differ from the screen's.
